RanGTP-Impb inh = inhibitors of RanGTP-importin-beta interaction, primary screen, biochemical, FRET, CFP-Ran, YFP-importin-beta, homogeneous | Ran GTPase (GTP-bound) - importin-beta complex | cell-free CFP-Ran/YFP-importin-beta FRET ratio | 300,000 compounds, 1.1% hits | AID 2216, 2009 | inhibition, % (no concentration beside the values);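 active means most replicates above 15%; inconclusive means exactly half above 15%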;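 further: 0% = DMSO wells and 100% = Ran loaded with GDP instead of GTP; wells of about 40 µL received 100 nL stock; the first replicate is given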
rRNA inh HTS = reduced GFP signal of wild-type E. coli, primary screen, bacterial rRNA inhibitor project, GFP/RFP fluorescence, OD600, single point; 350,000 compounds, 1.6% hits; E. coli WT GFP vs humanized-ribosome RFP mutants, 24 h; hits give low values; DMSO median 0, no signal -100; AID 720706, 2013; GFP signal change (wild-type ribosome), % (concentration not given with the values);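 active means significant combined selectivity score with lowered wild-type GFP, culture density cut under 30%, mutant RFP and density less affected; inactive means any of these conditions unmet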; further: one replicate is shown; some compounds called inactive have numbers as strong as hits
MLL AF4-AF9 inh = inhibitors of AF4 peptide binding to AF9, primary screen, biochemical, AlphaScreen, biotin-AF4 peptide, FLAG-AF9, single point; Protein AF-9 (Homo sapiens), P42568; inhibition, % at 10 µM; 350,000 compounds, 0.47% hits;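 active means every replicate reaching a set inhibition limit, whatever the replicate mean, cut at about 25% in these data; inconclusive means mean inhibition reaches that limit but some replicates miss it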;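 further: 0% = plate neutral control median and 100% = total signal loss; the record names both 10 and 1 µM as test concentration; the first replicate is given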
Target sequence (P42568 whole entry, looked up): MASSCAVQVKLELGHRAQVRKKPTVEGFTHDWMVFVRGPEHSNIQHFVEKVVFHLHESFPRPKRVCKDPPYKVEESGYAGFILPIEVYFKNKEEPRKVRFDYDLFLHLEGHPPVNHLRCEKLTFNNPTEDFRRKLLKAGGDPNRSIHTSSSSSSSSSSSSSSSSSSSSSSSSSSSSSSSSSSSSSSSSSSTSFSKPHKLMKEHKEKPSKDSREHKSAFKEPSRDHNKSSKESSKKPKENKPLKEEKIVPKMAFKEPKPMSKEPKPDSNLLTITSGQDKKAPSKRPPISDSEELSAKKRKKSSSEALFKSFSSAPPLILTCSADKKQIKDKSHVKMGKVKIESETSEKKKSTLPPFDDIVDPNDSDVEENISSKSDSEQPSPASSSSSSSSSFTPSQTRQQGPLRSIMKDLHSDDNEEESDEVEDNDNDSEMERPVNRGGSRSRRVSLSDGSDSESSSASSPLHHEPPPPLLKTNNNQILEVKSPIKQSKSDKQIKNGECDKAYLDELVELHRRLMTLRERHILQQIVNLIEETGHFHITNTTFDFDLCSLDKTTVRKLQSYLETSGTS
Beta cell apopt = inhibitors of cytokine-induced beta cell apoptosis, primary screen, luminescence; INS-1E cytokine-induced death, ATP luminescence, 48 h; percent of positive-control rescue, neutral wells zero; protection from apoptosis, % (concentration not given with the values); 300,000 compounds, 0.8% hits;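 active means all replicates at 75% or more, or half of them and the mean; inconclusive means half reach 75% but not the mean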;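 further: 0% = cytokine-treated negative control wells and 100% = positive control rescue; higher means more ATP so stronger rescue from cytokine killing; wells of about 40 µL received 100 nL stock; the first replicate is given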
ALR H2O2 inh = inhibitors of human ALR sulfhydryl oxidase, primary screen, biochemical, H2O2 detection, HRP-luminol luminescence, single point; purified ALR, DTT oxidation; inhibition, % (concentration not given with the values); FAD-linked sulfhydryl oxidase ALR (Homo sapiens), P55789; 290,000 compounds, 3.8% hits; AID 485317, 2010;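 active means mean and each replicate at 75% or more; inconclusive means only one of the two met; inactive means neither met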;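 further: stock transfer was 7.5 nL into about 7.5 µL; 0% = neutral wells and 100% = wells with inactivated enzyme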
Target sequence (P55789 whole entry, looked up): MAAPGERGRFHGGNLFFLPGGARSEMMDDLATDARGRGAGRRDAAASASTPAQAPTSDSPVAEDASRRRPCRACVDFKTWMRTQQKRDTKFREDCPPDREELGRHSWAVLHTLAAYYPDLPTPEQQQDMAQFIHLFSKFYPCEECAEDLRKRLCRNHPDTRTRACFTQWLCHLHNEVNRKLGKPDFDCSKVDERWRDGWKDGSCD
T cruzi repl = inhibitors of intracellular T. cruzi growth, primary screen, luminescence, NIH3T3 host cells | 300,000 compounds, 1.4% hits | inhibition, % (concentration not given with the values) | AID 1885, 2009 | T. cruzi beta-gal in NIH3T3, 90 h;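 active means mean inhibition across valid replicates above about 55%, limit read from the data; inconclusive means mean below that limit but half or more replicates reach it; inactive means mean below it, under half of replicates reach it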;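 further: signal also drops with host cell toxicity which is not excluded here; 0% = plate median of DMSO wells and 100% = zero luminescence signal; higher percent means less beta-gal luminescence so fewer parasites; stock transfer was 50 nL into about 50 µL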
Calb FLC = C. albicans growth inhibition with fluconazole, primary screen, CaCi-2 strain, Alamar Blue fluorescence | AID 1979, 2009 | C. albicans CaCi-2 (fluconazole-resistant clinical isolate) + fluconazole, 48 h | growth inhibition, % (no concentration beside the values) | 300,000 compounds, 0.57% hits;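 active means most replicates above 75%; inconclusive means exactly half above 75%; inactive means most below 75%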;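 further: all wells also contain fluconazole at 8 µg/ml as a sub-toxic cotreatment; 0% = median of DMSO wells and 100% = median of geldanamycin control wells; wells of about 8 µL received 7.5 nL stock; the first replicate is given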
FGF22 binding = binders of human FGF22 protein, primary screen, FGF22 synaptogenesis inhibitor project, biophysical, thermal shift, single point; Fibroblast growth factor 22 (Homo sapiens), Q9HCT0; recombinant FGF22 thermal shift, SYPRO orange fluorescence; percent of sucrose octasulfate shift, DMSO zero; calls only at 9.99 µM; 340,000 compounds, 1.5% hits; AID 651658, 2012;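 active means melting point raised past a set limit in the mean and every replicate; inconclusive means no clear call; three in four hits are not shown here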
Target sequence (Q9HCT0 whole entry, looked up): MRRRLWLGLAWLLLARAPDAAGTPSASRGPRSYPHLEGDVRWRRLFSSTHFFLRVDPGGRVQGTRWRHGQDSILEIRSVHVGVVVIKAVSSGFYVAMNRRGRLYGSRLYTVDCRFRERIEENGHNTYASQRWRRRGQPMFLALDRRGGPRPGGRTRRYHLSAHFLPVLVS
rRNA inh HTS OD600 = recorded beside rRNA inh HTS, whose call it bears; OD600 change, %; measured here: OD600 growth;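 optical density of the mix in the first replicate; 0 = DMSO median and -100 = no signal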
rRNA inh HTS RFP = further read-out of rRNA inh HTS, marked with its call; RFP signal change, %; measured here: RFP humanized mutant strains;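 first replicate; 0 = DMSO median and -100 = no signal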
Starred values were filed as active, the others as inactive; i = inactive; ? = inconclusive; . = no result given; & = joins results of further samples. Not all compounds are listed. The share of hits here may be higher or lower than overall.

SMILES	RanGTP-Impb inh	rRNA inh HTS	rRNA inh HTS OD600	rRNA inh HTS RFP	MLL AF4-AF9 inh	Beta cell apopt	ALR H2O2 inh	T cruzi repl	Calb FLC	FGF22 binding
CC(=O)C1=C(O)C(=O)N(c2nccs2)C1c1ccc(Br)cc1 (stereo not drawn)	1.6	.	.	.	.	-4	14	-9	-11	.
O=C(Nc1cccc(-c2nc3ccccc3s2)c1)C1=COCCO1	-1.7	.	.	.	.	4	.	-2	-2	.
CN1C(=O)CSc2ccc(NC(=O)NCc3cccnc3)cc21	-1.4	-16	-16	-3.2	2.8	-8	-2	-16	16	i
CCc1cc2c(=O)oc(-c3ccc(Br)cc3)nc2s1	-2.0	6	10	0.5	-0.6	.	.	-9	8	i
Cc1nn(-c2ccccc2)c(N2CCCC2)c1/C=N/Nc1ccc(S(=O)(=O)Nc2ccccc2)cc1[N+](=O)[O-]	0.1	.	.	.	.	17	0	53	-2	.
COc1cc(/C=N\Nc2ccc([N+](=O)[O-])cn2)ccc1OCC(=O)O	70*	.	.	.	.	2	42	3	4	.
C/C(=N\NC(=O)C1CC1)c1ccccc1Br	1.5	8	2	-0.6	-1.2	6	-27	0	32	i
Cc1ccc(CN2C(=O)CSC2c2ccc(F)cc2)cc1 (stereo not drawn)	1.7	-18	-38	-5.6	0.8	-6	-10	15	23	i
CCOCC(=O)Nc1nc(-c2ccccc2)c(CC)s1	1.4	.	.	.	.	1	9	7	-3	.
Cc1ccc(O)c([C@H](CCN(C(C)C)C(C)C)c2ccccc2)c1	0.6&0.3	.	.	.	3.6&-1.2	1&-2	21&11	11&17	-7	i
COC(=O)COc1cccc(NC(=O)c2cccc(C)c2)c1	-3.1	2	13	-1.6	-3.3	-4	-1	-14	-3	i
COc1ccc(N(CC(=O)NCc2ccco2)S(=O)(=O)c2c(C)nn(C)c2C)cc1	-1.3	-2	8	-0.4	-0.7	2	-2	8	-5	i
NS(=O)(=O)c1ccc(CCNC(=O)C(=O)NCC2OCCN2S(=O)(=O)c2cc(F)ccc2F)cc1 (stereo not drawn)	-1.8	-8	-1	-7.3	-14	-9	-2	-11	0	i
CCOc1cccc(CN2CCC(Oc3ccc(C(=O)NCc4ccccn4)cc3)CC2)c1	2.6	-1	0	-0.7	-3.3	-3	-7	-1	5	i
CN(C)CCCN1C(=O)c2oc3ccccc3c(=O)c2C1c1cccs1 (stereo not drawn)	.	.	.	.	.	1	-1	7	7	.
NS(=O)(=O)c1ccc(CCNC(=O)CN2C(=O)NC(c3ccccc3)(c3ccccc3)C2=O)cc1	.	-7	-5	2.2	-3.7	-4	-11	.	.	i
COCC(=O)Nc1nnc(Cc2ccc(OC)cc2)s1	2.0	.	.	.	.	-4	-3	2	-6	.
c1cncc(CNc2ncnc3sc4c(c23)CCCC4)c1	1.4	-19	-10	-1.3	-2.2	-3	.	-11	10	i
COc1ccc(COc2ccsc2C(=O)Nc2ccc(Cl)c(Cl)c2)cc1	-4.7	.	.	.	.	-5	-5	-12	-15	.
COc1cc(SC)ccc1C(=O)NCCCn1ccnc1	2.3	7	7	-2.4	-0.1	-11	-7	-5	-2	i
CC(C)=CC1C(C(=O)Nc2ccc(S(=O)(=O)N3CCOCC3)cc2)C1(C)C (stereo not drawn)	-2.4	-9	-43	1.4	2.0	3	.	18	-4	i
COc1cccc(C(=O)Cn2c(NCCO)nc3ccccc32)c1	1.4	4	1	0.0	.	-6	2	13	-6	.
COc1ccc(-c2onc3ccc(C(=O)/C=C/N(C)C)cc23)cc1	-7.2	1	-4	0.1	-2.5	-11	43	-2	17	i
CCN(CC)C(=O)c1cn(CCC#N)nc1-c1ccc2c(c1)OCCO2	.	1	4	-0.6	-2.0	-2	0	0	1	i
O=C(CN1C(=O)c2cccc3cccc1c23)N1CCN(c2ccc(F)cc2)CC1	-2.8	.	.	.	.	-1	-8	12	2	.
COc1ccc(Cc2nc(-c3ccc(-n4cccc4)cc3)no2)cc1OC	-1.3	-9	-15	1.7	-1.0	3	-11	-2	2	i
Cc1cccc(OCC(=O)Nc2ccc3nc(C)sc3c2)c1	-1.4	5	4	0.7	-2.1	-1	-4	-20	11	i
Cc1ccc2c(cnn2C(=O)CCCC(=O)NCc2ccc(F)cc2)c1	-0.3	13	4	-1.7	1.5	-10	-14	1	-2	i
CCOC(=O)c1c(C)[nH]c(C(=O)C(C)Sc2ccc(Cl)cc2)c1C (stereo not drawn)	4.3	.	.	.	.	2	4	4	2	.
CC(C)C(=O)Nc1nnc(SCC(=O)NC2CCCC2)s1	-3.6	6	4	0.8	-0.9	-2	-13	-7	1	i
CN(CCCNC(=O)C1CCN(S(=O)(=O)N2CCC3(CC2)OCCO3)CC1)Cc1ccccc1	-3.5	.	.	.	.	.	-4	42	0	.
Cc1cnc(=O)[nH]c1SCc1ccccc1F	6.3	-15	0	0.2	3.3	-4	-2	-4	28	i
C=C(C)C1CCC(C)=C1CC(C)(C)/C=N\n1cnnc1 (stereo not drawn)	1.2	5	-8	2.4	5.4	-1	-7	18	-1	i
O=C(CN1CCOCCOCCOCCOCC1)Nc1ccccc1	0.1	.	.	.	.	1	2	-2	-2	.
Cc1ccc(C)c(OCC(=O)Nc2ccc(S(=O)(=O)Nc3onc(C)c3C)cc2)c1	0.2	6	-27	-2.0	-0.8	3	.	-10	0	i
Cc1ccc2nc(C)c(C(=O)N/N=C/c3cccc([N+](=O)[O-])c3)cc2c1	0.1	.	.	.	.	-10	9	-4	3	.
COC(=O)c1cc2oc(C)cc2n1CC(=O)Nc1cc(C)cc(C)c1	3.1	.	.	.	.	.	3	35	-28	.
CCc1ccc[n+](-c2nc3ccccc3nc2C(=C=[N-])C#N)c1	31*	16	2	2.6	-1.2	1	9	-4	3	i
O=C(c1c[nH]c2ccccc12)N1CCOCC1	-0.7	17	14	1.4	-1.6	-1	1	-13	20	i
COC(CNC(=O)C(=O)NCC1OCCN1C(=O)c1ccc(Cl)cc1)OC (stereo not drawn)	4.1	6	6	2.7	-13	1	1	0	-1	i
CCOC(=O)CC(=O)CSc1nc(-c2ccc3c(c2)OCO3)cc(C(F)(F)F)c1C#N	-6.6	-1	-4	9.7	-1.4	4	-4	-13	33	i
CCOC(=O)c1nn(-c2ccc(C)cc2)c(C)c1C(C)=O	3.0	.	.	.	.	-5	6	-11	-8	.
Cc1ccc(-c2nnn(CC(=O)N(Cc3ccco3)C(C(=O)NC(C)(C)C)c3ccc(C)o3)n2)o1 (stereo not drawn)	-1.8	-16	-23	-1.2	10	-12	-2	4	6	i
O=C(COCc1cc(-c2ccc3c(c2)OCO3)on1)N1CCCCC1	-1.3	6	-7	-12	-3.5	0	-10	0	0	i
CCn1c(O)c2ccc(C(=O)N=NC(=O)c3cccnc3)cc2c1O	0.8	11	14	-7.4	0.2	.	.	-8	-4	i
CC(=O)c1ccc2c(c1)CC(C)C(=O)N2C (stereo not drawn)	0.6	5	5	-3.2	1.8	-1	-8	-8	3	i
CC(NC(=O)C1CCC(CNS(=O)(=O)c2ccccc2)CC1)c1ccc2c(c1)OCCO2 (stereo not drawn)	-2.0	.	.	.	.	4	-5	6	10	.
CSc1nncc(-c2ccc(F)c(F)c2)n1	0.0	.	.	.	.	2	-1	2	3	.
Cc1ncc(CN2CCCC(C(=O)Nc3ccc(-c4cscn4)cc3)C2)cn1 (stereo not drawn)	?	-6	5	-2.1	-0.5	17	1	7	-4	i
CC1CCCCC1NC(=O)c1ccc(NS(=O)(=O)c2ccc3[nH]c(=O)[nH]c3c2)cc1 (stereo not drawn)	2.8	-3	-9	-0.7	-5.1	-2	10	-19	-2	i
CNc1nc2c(Cl)cc(Cl)cc2s1	3.6	4	1	-3.5	-18	-5	-3	-10	22	i
O=C(Cc1cccs1)NCc1ccccc1F	0.0	7	1	-2.9	5.6	-6	1	-22	-11	i
COc1ccc(OC)c2c(C)cc(N3CCN(C(=O)c4ccc(Cl)cc4)CC3)nc12	-8.4	.	.	.	.	-7	-3	11	?	.
O=C(Cn1c(COc2ccccc2)nc2ccccc21)Nc1cc(Cl)cc(Cl)c1	1.4	.	.	.	.	.	-4	0	30	.
COC(=O)c1ccc(-n2cncn2)c([N+](=O)[O-])c1	-5.0	10	16	-1.7	-0.7	-6	-31	-1	1	i
O=C(NC(=S)NCCC1=CCCCC1)c1ccco1	1.6	-6	-6	-0.4	-1.1	-3	-8	-5	-38	i
Cc1nnsc1S(=O)c1ccccc1Cl (stereo not drawn)	1.7	2	14	-1.6	0.1	-3	-3	10	-5	i
O=C1NC(=O)C(Cc2ccccc2)(c2cccnc2)N1 (stereo not drawn)	0.3	-2	6	-1.2	2.0	2	-14	-19	-1	i
O=S1(=O)CC/C(=N\O)c2ccccc21	6.4	.	.	.	.	-6	-2	-13	1	.
COc1ccc(C(=O)NC(=S)N2CCNC(=O)C2)cc1Br	6.2	2	0	-2.6	-6.3	-2	0	-12	-3	i

Next part:
SMILES	RanGTP-Impb inh	rRNA inh HTS	rRNA inh HTS OD600	rRNA inh HTS RFP	MLL AF4-AF9 inh	Beta cell apopt	ALR H2O2 inh	T cruzi repl	Calb FLC	FGF22 binding
O=c1cc(N2CCCCC2)c(-c2ccccc2)nn1Cc1cccc(Cl)c1	11	.	.	.	.	.	-3	29	-1	.
CCCNS(=O)(=O)c1ccc(OCC(=O)Nc2ccc3c(c2)OCO3)cc1	3.2	-10	-4	-3.1	-0.8	2	-6	4	2	i
COc1cccc(CC2(CO)CCCN(CC3=Cc4cc(Cl)ccc4OC3)C2)c1 (stereo not drawn)	-5.3	-38	-75	4.3	0.9	-5	1	51	30	i
CC(C)CNS(=O)(=O)c1ccc(CCC(=O)NCCC2=CCCCC2)cc1	3.1	1	-7	1.7	-2.5	-6	.	9	26	i
CC1(C(=O)NC(=S)NNC(=O)c2ccncc2)CCCCC1	4.8	.	.	.	.	.	19	-2	-5	.
Cc1ccc(Sc2nnc(-c3ccccc3)cc2C#N)cc1	-0.5	.	.	.	.	.	-25	-1	-8	.

2 of the compounds above, in CSV form.
SMILES,RanGTP-Impb inh,rRNA inh HTS,rRNA inh HTS OD600,rRNA inh HTS RFP,MLL AF4-AF9 inh,Beta cell apopt,ALR H2O2 inh,T cruzi repl,Calb FLC,FGF22 binding
CCCNS(=O)(=O)c1ccc(OCC(=O)Nc2ccc3c(c2)OCO3)cc1,3.2,-10,-4,-3.1,-0.8,2,-6,4,2,i
COc1cccc(CC2(CO)CCCN(CC3=Cc4cc(Cl)ccc4OC3)C2)c1 (stereo not drawn),-5.3,-38,-75,4.3,0.9,-5,1,51,30,i

Compound activity as filed in PubChem.
